# Sa ugtP lethal: compounds lethal to S. aureus RN4220 ugtP deletion mutant; growth inhibition, % (no concentration beside the values); OD600 growth, 16 h; some inactives read as strong as hits; AID 1259309; actives 0.54% (n = 330,000);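 active means z-score under -3 and OD600 up to 0.15 on both plates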;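 further: plate controls were untreated wells for no effect and antibiotic for full effect; wells of about 80 µL received 100 nL stock; the first replicate is given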
# Autofluor counter: counter-screen for toxin protease inhibitors: compound fluorescence; fluorescence intensity (concentration not given with the values); compound autofluorescence counterscreen, microsphere flow cytometry; stronger effect = higher value; actives 3.1% (n = 360,000);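 active means at least 3 SD above the mean of all compounds, about 16000 in these data; inconclusive means too few beads counted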;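 further: 100 nL of 1 mM stock went into each well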
# Sa RN4220 lethal: kills Staphylococcus aureus RN4220. S. aureus RN4220 growth, OD600, 16 h. inhibition, % (no concentration beside the values). actives 0.33% (n = 330,000). AID 1259311;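 active means z-score of -3 or lower and OD600 up to 0.18 on both plates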;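 further: plate controls were untreated cells for no effect and reference antibiotic for full effect; stock transfer was 100 nL into about 80 µL; one replicate is shown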
# BJeLR viability: kills HRASV12-expressing BJeLR cells. inhibition, % (concentration not given with the values). BJeLR (HRASV12) viability, CellTiter-Glo ATP luminescence, 48 h; reference of the scale not given here. actives 0.17% (n = 300,000). AID 1554;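 active means replicate mean above 50%; inconclusive means above 50% but judged a plate artefact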;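 further: 50 nL library stock added to about 25 µL; numbers are from one replicate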
# Mtb hypoxia inh: inhibitors of hypoxia-regulated fluorescent reporter in Mycobacterium tuberculosis; AID 1159583; actives 0.1% (n = 300,000); fluorescence inhibition, % (concentration not given with the values); M. tuberculosis hypoxia-regulated fluorescent reporter, fluorescence;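 active means 35 to 45% if threefold the growth effect, above 45% if 1.5-fold the growth effect; inactive means the rest, general growth blockers included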;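 further: wells of about 50 µL received 100 nL stock; 0% = vehicle wells and 100% = reference inhibitor wells; whole bacteria with a GFP reporter of the hypoxia response; strong numbers were not always called active; many hits fall short of the cut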
# PrP 5UTR inh: suppresses PrP 5' UTR mRNA reporter expression; AID 488862; inhibition, % (concentration not given with the values); cell-based PrP 5' UTR mRNA reporter, plate reader; actives 0.35% (n = 340,000);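 active means every replicate at 50% or more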;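 further: 0 = median of the neutral control wells; tested in H4 reporter cells; numbers are from one replicate; inactives centre near -14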
# Mtb hypoxia inh growth: recorded beside Mtb hypoxia inh, whose call it bears; growth inhibition, %; measured here: M. tuberculosis growth (absorbance);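 0% = vehicle and 100% = reference antibiotic; read after six days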
# * hit, by the source's call; u = inconclusive; x = no result given. Compounds as they come; any-hit rate near 4%.
nr	compound	Sa ugtP lethal	Autofluor counter	Sa RN4220 lethal	BJeLR viability
1	O=C(CSc1nc(NS(=O)(=O)c2ccccc2)cc(=O)[nH]1)Nc1ccc(F)cc1	1.9	3746	4.9	-9.6
2	CN(Cc1nc2ccccc2[nH]1)C(=O)C1CCC(=O)N(C2CCCC2)C1 (stereo not drawn)	2.0	u	2.9	0.9
3	CC1CCCN(c2ccc(/C=C(\C#N)c3nn(-c4ccccc4)c(N)c3C#N)cc2[N+](=O)[O-])C1 (stereo not drawn)	4.1	3869	2.1	6.1
4	O=C(COc1cc2oc(=O)cc(-c3ccccc3)c2cc1Cl)NCc1ccccn1	6.5	x	4.0	4.2
5	O=C(CCn1nnc2ccccc21)NN=CCc1ccccc1	2.4	x	1.3	x
6	COCCn1c(SCC(=O)NCc2ccco2)nnc1-c1c[nH]c2ccccc12	-4.2	5372	-10.1	7.6
7	Cc1cccc(N(Cc2ccccc2)C(=O)CN2C(=O)NC3(CCCC3)C2=O)c1	12.6	6526	7.3	x
8	Cc1c(Cl)cccc1NC(=O)c1cc(C2CC2)on1	8.0	5414	9.8	2.0
9	COc1ccc(C(=O)Nc2ccc(Cl)c(S(=O)(=O)Nc3ccccc3OC)c2)cc1	-12.1	2645	-11.2	6.2
10	Cc1ccc(NCCC(=O)c2cccs2)cc1Cl	-10.4	4267	5.9	0.2
11	COc1ccc2c(c1)nc(SCC(C)O)n2C (stereo not drawn)	-1.5	2486	-4.6	6.3
12	O=C(CNc1ccccc1)N/N=C/c1ccc2c(c1)OCCO2	x	1950	x	3.5
13	CCN1C(Nc2ccccc2)=NCC1CC(C)C (stereo not drawn)	1.2	x	6.5	x
14	Cc1ccccc1-c1nc(CS(=O)(=O)CC(=O)Nc2cc(F)ccc2F)c(C)o1	-11.4	6243	1.9	8.1
15	C=CCOc1ccc(CNCc2cccnc2)cc1OCC	-3.1	3407	4.9	18.3

nr	Mtb hypoxia inh	Mtb hypoxia inh growth	PrP 5UTR inh
1	9.1	20.4	-20.3
2	-9.9	11.2	-12.8
3	6.6	13.9	1.3
4	4.2	2.0	-11.7
5	7.2	11.1	x
6	6.2	12.7	7.7
7	8.6	3.4	-21.4
8	10.5	3.8	-35.2
9	-17.8	-9.8	9.7
10	9.2	3.9	-38.7
11	3.6	-6.3	-17.6
12	x	x	-22.7
13	-5.7	2.7	x
14	3.5	8.5	-31.8
15	12.3	2.0	-25.2

# The results go on.
nr	compound	Sa ugtP lethal	Autofluor counter	Sa RN4220 lethal	BJeLR viability
16	CC(=O)Nc1sc(NN=Cc2ccc(O)cc2)nc1-c1ccc(C)cc1	0.7	x	2.8	x
17	CN(CC(=O)Nc1ccc(Cl)c(C(F)(F)F)c1)C(=O)C1CCN(C(=O)c2ccc(Cl)cc2)CC1	-17.5	u	-2.1	x
18	CN(C)C(CNC(=O)c1coc2ccccc2c1=O)c1ccccc1 (stereo not drawn)	1.2	5383	2.6	-2.3
19	CCCN(CC(=O)Nc1cccc(S(N)(=O)=O)c1)CC(=O)Nc1ccc(F)c(F)c1F	4.9	3380	2.0	-17.5
20	CCN(CC)S(=O)(=O)c1ccc(/C=C/C(=O)OCC(=O)NC(=O)C2COc3ccccc3O2)cc1 (stereo not drawn)	1.9	4126	2.1	x
21	CCCCN(CCCC)c1nc(OC)nc(-n2nnc(C(C)=O)c2C)n1	-16.0	3058	30.6	-6.9
22	CC(=O)c1ccc(N=Cc2c(O)n(-c3cc(Cl)ccc3N3CCOCC3)c(=O)c3ccccc23)cc1	-13.3	4412	-0.6	-2.6
23	Cc1cc([N+](=O)[O-])nn1CC(=O)N(C)C1CCCCC1	-3.2	5158	0.2	1.6
24	O=C(COC(=O)/C=C/c1ccc2c(c1)OCO2)Nc1ccc(S(=O)(=O)N2CCCC2)cc1	8.9	7904	-3.3	-7.2
25	O/N=C1\CCCc2ccc(Cl)cc21	x	2604	x	-8.7
26	NC(=O)CSc1nnc2ccc(-c3ccc(Cl)cc3)nn12	0.5	4834	1.7	-6.3
27	CCOc1ccccc1N1CCN(CC(O)COCc2cccs2)CC1 (stereo not drawn)	4.2	6341	2.5	-8.2
28	COc1ccc2c(C)cc3nnnn3c2c1	4.0	5633	-0.6	-0.2
29	COc1cccc(OC)c1OCCNCC1CSc2ccccc2O1 (stereo not drawn)	-4.8	5998	6.7	1.6
30	CCOc1ccccc1NC(=O)C1CCCN(S(=O)(=O)c2ccccc2)C1 (stereo not drawn)	4.2	4534	-1.5	7.8

nr	Mtb hypoxia inh	Mtb hypoxia inh growth	PrP 5UTR inh
16	x	x	x
17	-6.7	4.8	x
18	-1.8	1.6	0.7
19	8.1	2.9	-5.8
20	8.7	12.6	-14.7
21	9.6	-12.2	-35.8
22	x	x	14.2
23	4.4	-5.8	-20.1
24	2.0	2.0	-28.2
25	x	x	-7.8
26	5.5	2.6	-6.7
27	2.1	-3.3	-11.2
28	-3.5	-2.8	-30.3
29	7.3	7.7	-14.4
30	0.8	-3.1	-26.2

# Additional structures:
nr	compound	Sa ugtP lethal	Autofluor counter	Sa RN4220 lethal	BJeLR viability
31	CCOC(=O)c1[nH]ncc1[C@@H]1C[C@H]2CN(Cc3cccc(Cl)c3)C(=O)[C@]23CCCN13	1.4	4162	2.7	1.7
32	COc1ccc(NC(=O)COC(=O)c2ccc3c(c2)OCO3)c(OC)c1	4.0	3176	4.5	x
33	COc1cccc(C(=O)NN=C(CCC(=O)O)c2ccccc2)c1	1.8	x	1.1	x
34	CCOC(=O)C1CCCN(c2c(NCCc3ccc(C)cc3)c(=O)c2=O)C1 (stereo not drawn)	4.5	6327	2.5	0.8
35	Cc1sc2c(c1C)c(=O)n(-c1cccc(C(F)(F)F)c1)c(=O)n2CC(=O)NCc1ccco1	-4.5	3836	0.8	1.7
36	COCCCNc1nc2ccccc2nc1NS(=O)(=O)c1ccc(F)cc1	-2.4	3670	2.9	11.8
37	CCN1CCN(c2nc(C)c3c(n2)CCCC3=O)CC1	1.2	11809	3.3	5.4
38	COc1ccc(N2CCN(C(=O)NCc3ccc(OC)c(Cl)c3)CC2)cc1	-2.5	4493	0.6	-9.1
39	CC1CCN(C(=O)COC(=O)C(C)N2C(=O)c3ccccc3C2=O)CC1 (stereo not drawn)	3.1	3977	1.3	x
40	CC(=O)C(=NNc1ccccc1)Sc1cccc2cccnc12	8.2	x	7.3	x
41	CSCCC(NS(=O)(=O)c1ccc(C)c(C(=O)O)c1)C(=O)O (stereo not drawn)	3.2	4011	0.7	-5.0
42	N/C(=N\OC(=O)c1ccc([N+](=O)[O-])cc1)c1ccc(Br)cc1	x	3583	x	-16.7
43	CCCS(=O)(=O)Nc1cccc(-c2ccc3nnc(C)n3n2)c1	-2.5	2402	3.8	-10.9
44	Cc1ccc(C(=O)OCC(=O)N(C)C2CCS(=O)(=O)C2)cc1[N+](=O)[O-] (stereo not drawn)	3.4	4331	0.0	x
45	COc1ccc(Cn2c(=O)cc(N)n(-c3ccccc3C)c2=O)cc1	5.9	x	0.4	14.5

nr	Mtb hypoxia inh	Mtb hypoxia inh growth	PrP 5UTR inh
31	2.3	6.6	-8.5
32	3.8	-0.8	-8.4
33	-6.1	1.3	x
34	15.8	-3.6	-1.9
35	8.0	5.0	2.2
36	-14.0	0.8	-19.9
37	9.0	4.5	-40.1
38	-4.7	12.0	19.4
39	8.2	1.5	5.0
40	14.0	2.4	x
41	16.3	4.8	-29.5
42	x	x	-16.9
43	6.8	5.3	-5.4
44	6.1	-2.0	-36.2
45	7.0	8.0	x

# (listing goes on)
nr	compound	Sa ugtP lethal	Autofluor counter	Sa RN4220 lethal	BJeLR viability
46	O=C(Cn1cnc2c(nnn2Cc2ccc(F)cc2)c1=O)OCc1ccccc1	8.4	7793	0.6	-1.9
47	CCCOc1ccc(Cl)cc1CN1CCOCC1	0.4	2822	7.5	3.0
48	CC(=O)c1ccc(S(=O)(=O)N2CCN(C(=O)CCC3CCCC3)CC2)cc1	6.6	4138	2.9	x
49	CCCC(CNC(=O)COC(=O)C1=NNC(=O)CC1)c1ccc(Cl)cc1Cl (stereo not drawn)	-4.4	3621	5.0	x
50	Cc1cc2ncn(S(=O)(=O)N3CCOCC3)c2cc1C	-2.2	8613	2.1	-11.0
51	Cc1ccccc1C(=O)N1CCC(C(=O)NCCc2ccc(S(N)(=O)=O)cc2)CC1	-9.0	4994	1.6	-15.0
52	Cc1c(N=Cc2ccc(-c3ccc(Cl)cc3)o2)c(=O)n(-c2ccccc2)n1C	-0.1	2587	0.8	3.9
53	Fc1ccc(Oc2ccc3nnc(C(F)(F)F)n3n2)cc1	2.2	4408	4.8	0.8
54	COc1ccc(C(C(=O)NC2CCCC2)N(C(=O)CNC(=O)c2ccco2)c2cccnc2)cc1 (stereo not drawn)	0.7	5774	0.8	-7.7
55	CCCN1C(=O)C(NC(C)=O)c2cc(OC)ccc21 (stereo not drawn)	-7.1	2554	-9.3	-13.1
56	O=C1/C(=C/c2ccccc2F)SC(=S)N1CCC(=O)N1CCCCC1CCO (stereo not drawn)	11.0	5920	9.5	10.9
57	COc1cc(NC(=O)c2cc([N+](=O)[O-])ccc2NC(=O)CN2CCN(c3ccccn3)CC2)cc(OC)c1	-2.3	4299	-0.6	0.8
58	O=C(NCc1ccccc1F)C1CCCN(C(=O)Nc2ccc(F)cc2)C1 (stereo not drawn)	14.9	3212	3.4	-0.2
59	COc1ccc(/C=N/NC(=O)c2ccc(COc3ccccc3Cl)o2)c(OC)c1C	x	10817	x	-3.2
60	COC(=O)COc1ccc(Oc2nc(SC)nc(N(C)C)n2)nn1	1.5	4256	-1.1	1.7

nr	Mtb hypoxia inh	Mtb hypoxia inh growth	PrP 5UTR inh
46	-2.2	1.0	-14.9
47	x	x	-28.8
48	-5.1	-8.4	4.2
49	17.6	6.1	-8.0
50	9.8	3.3	-18.4
51	13.2	0.6	-22.0
52	x	x	-27.1
53	4.8	-2.4	-9.0
54	-11.1	-2.8	-1.8
55	16.4	8.9	-128.7
56	13.2	12.4	-8.7
57	5.9	-0.5	-19.9
58	5.0	2.1	-6.8
59	x	x	-13.8
60	0.3	0.4	-15.5

# Entries of single compounds, quoted from the list. Screens in order: Sa ugtP lethal | Autofluor counter | Sa RN4220 lethal | BJeLR viability | Mtb hypoxia inh | Mtb hypoxia inh growth | PrP 5UTR inh
# Shown for `Cc1ccc(NCCC(=O)c2cccs2)cc1Cl` = -10.4 | 4267 | 5.9 | 0.2 | 9.2 | 3.9 | -38.7
# Shown for `CCOc1ccccc1N1CCN(CC(O)COCc2cccs2)CC1` (stereo not drawn) = 4.2 | 6341 | 2.5 | -8.2 | 2.1 | -3.3 | -11.2
# Shown for `Cc1sc2c(c1C)c(=O)n(-c1cccc(C(F)(F)F)c1)c(=O)n2CC(=O)NCc1ccco1` = -4.5 | 3836 | 0.8 | 1.7 | 8.0 | 5.0 | 2.2
# Shown for `O=C(CSc1nc(NS(=O)(=O)c2ccccc2)cc(=O)[nH]1)Nc1ccc(F)cc1` = 1.9 | 3746 | 4.9 | -9.6 | 9.1 | 20.4 | -20.3

# Remaining list, next part:
nr	compound	Sa ugtP lethal	Autofluor counter	Sa RN4220 lethal	BJeLR viability
61	CCCCCC(=O)Nc1ccccc1N1CCOCC1	3.2	2115	6.0	-1.3
62	COc1ccc(NC2CCCN(C(=O)c3ccc4nccnc4c3)C2)cc1OC (stereo not drawn)	-4.5	5733	-6.0	4.8
63	O=C1OCCC1Sc1nc2ccccc2c(=O)n1-c1ccc(F)cc1 (stereo not drawn)	7.1	3023	-0.3	3.3
64	CC(=O)c1nn(-c2cccc(Br)c2)cc1C(=O)c1ccco1	1.2	4307	4.8	5.2
65	O=C(Cn1c(=O)cnc2ccccc21)Nc1ccccc1N1CCOCC1	8.7	4774	3.5	3.6
66	COc1ccccc1C(=O)N/C(=C\c1ccc2c(c1)OCO2)C(=O)NCCc1nc2ccccc2[nH]1	0.6	2433	4.7	3.4
67	O=S(=O)(N/N=C1\CC(c2ccccc2)Oc2ccccc21)c1ccccc1 (stereo not drawn)	x	3731	x	-5.3
68	COc1cc(S(=O)(=O)NCc2ccccn2)ccc1Cl	6.1	3491	6.0	-5.1

nr	Mtb hypoxia inh	Mtb hypoxia inh growth	PrP 5UTR inh
61	11.6	10.1	3.1
62	-4.5	-2.4	-16.9
63	1.8	1.5	-18.4
64	4.4	7.8	-24.0
65	4.7	-3.9	13.7
66	-6.0	1.4	-11.1
67	x	x	-1.1
68	11.5	10.9	-18.4
